# High-throughput results (PubChem BioAssay)
# GLA inh pH 4.5: inhibitors of human alpha-galactosidase A at pH 4.5; P06280; activity change, negative = inhibition, % at 105 µM; 230,000 tested, under 10 active; purified enzyme, 4-MU-alpha-Gal fluorescence, pH 4.5; inconclusive = small, poorly fitted or top-dose-only inhibition, or a rising curve; inactive = flat fitted curve, though single readings scatter; no compound was filed as active;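 note: 0% = full activity with enzyme and -100% = basal without enzyme; dose as in the result columns while the protocol names 77 µM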
# miR-21 FLuc: raises the signal of a miR-21 reporter; HeLa miR-21 FLuc reporter, luciferase, 48 h; Potency, µM (top dose mostly 38.3 µM), inactives show at the top dose reporter change, positive = more light; 340,000 tested, under 10 active; AID 2288; active = well fitted rising curve with a large enough effect; inconclusive = small, poorly fitted or top-dose-only effect; inactive = no such curve, though single readings can be large or run the other way;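 note: % of control where 0% means no effect; miR-21 action dims this reporter so a rising signal means less miR-21 action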
#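 HeLa cells endogenously expressing miR-21, stably carrying CMV-driven firefly luciferase with a downstream miR-21 binding site, 2000 cells/well. Titrations up to approximately 40 uM, 48 hours; luciferase luminescence read.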
# Rango complex inh: prevents formation of the Rango-importin beta complex. Rango CFP/YFP FRET sensor + importin beta, 45 min. Q14974. Potency, µM (top dose mostly 92.2 µM), without a hit: at the top dose inhibition of complex formation. hit rate 0.031% among 340,000. AID 540263; active = rising FRET ratio curve, often small or poorly fitted; inconclusive = mostly compound fluorescence or quenching in the first reads; inactive = flat curves in all reads;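 note: potency is the fitted concentration of half-maximal effect; 0% = DMSO wells and 100% = buffer wells lacking importin beta; nearly all actives have a fitted effect of over 15% in size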
# Target sequence (Q14974 whole entry, looked up): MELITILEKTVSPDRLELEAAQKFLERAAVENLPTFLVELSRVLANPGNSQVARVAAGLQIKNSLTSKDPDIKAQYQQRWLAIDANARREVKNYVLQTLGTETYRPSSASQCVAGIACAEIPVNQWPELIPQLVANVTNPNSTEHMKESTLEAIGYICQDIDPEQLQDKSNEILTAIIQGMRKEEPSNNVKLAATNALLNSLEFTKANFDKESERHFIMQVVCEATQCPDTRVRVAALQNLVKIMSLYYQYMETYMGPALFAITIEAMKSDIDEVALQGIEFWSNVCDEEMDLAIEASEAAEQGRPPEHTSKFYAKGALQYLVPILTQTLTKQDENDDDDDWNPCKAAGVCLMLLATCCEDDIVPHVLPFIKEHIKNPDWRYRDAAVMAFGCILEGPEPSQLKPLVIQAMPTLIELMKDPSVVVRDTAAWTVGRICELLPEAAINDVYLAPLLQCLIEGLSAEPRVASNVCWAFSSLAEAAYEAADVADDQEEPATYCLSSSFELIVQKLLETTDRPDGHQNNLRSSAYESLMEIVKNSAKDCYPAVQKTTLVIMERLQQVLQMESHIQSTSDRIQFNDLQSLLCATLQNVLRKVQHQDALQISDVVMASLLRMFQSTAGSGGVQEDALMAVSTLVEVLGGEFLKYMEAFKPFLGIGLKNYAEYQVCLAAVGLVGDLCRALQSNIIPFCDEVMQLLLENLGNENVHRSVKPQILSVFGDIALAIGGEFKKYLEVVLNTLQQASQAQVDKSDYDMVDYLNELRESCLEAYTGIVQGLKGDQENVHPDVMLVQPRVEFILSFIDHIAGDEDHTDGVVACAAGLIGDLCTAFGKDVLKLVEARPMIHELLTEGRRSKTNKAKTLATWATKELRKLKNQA
#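 FRET biosensor Rango (snurportin 1 IBB between N-terminal EYFP and C-terminal Cerulean), 50 nM in PBS/1 mM DTT/0.02% Tween-20/0.1% BSA, preincubated 5 min RT with compound; 0.125 microM importin beta added, 45 min RT, CFP/YFP FRET ratio read.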
# Rango dissoc inh: inhibitors of RanGTP-induced Rango-importin beta complex dissociation; Biochemical FRET Rango-importin beta, RanGTP-induced dissociation; Potency, µM (series often up to 46.1 µM), for inactives: at the top dose activity change, negative = inhibition; hit rate 0.071% among 340,000; active means falling FRET ratio curve, often poorly fitted, with flat reads before Ran was added; inconclusive means other falling curves, or compound fluorescence or quenching; inactive means flat or rising ratio curve;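 note: potency is the fitted concentration of half-maximal effect; % of control where 0% means no effect; nearly all actives have a fitted effect of over 45% in size; -100% = wells without RanGTP and RCC1; the record marks most hits as doubtful in a second field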
#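 Recombinant Rango FRET biosensor (EYFP–snurportin 1 IBB–cerulean CFP10) at 0.1 uM premixed with 0.25 uM importin beta in PBS, 1 mM DTT, 0.02% Tween-20, 0.1% BSA. Compound added 5 min; RanGTP-RCC1 (0.6 uM Ran, 2 mM GTP, 0.2 uM RCC1) then triggers release, read at 45 min.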
# Numbers without * were called inactive; ? = inconclusive; . = no result given; & = joins results of further samples. These rows are one share of the data; the hit share may differ from the screen's.
# Letter code – A = GLA inh pH 4.5; B = miR-21 FLuc; C = Rango complex inh; D = Rango dissoc inh
[1] CC(C#N)Sc1nc2ccccc2c(=O)n1-c1ccccc1 (stereo not given)
  A: -5; B: -13%; C: -3.8%; D: 0%
[2] COc1ccc(-n2ccc(-c3nn(-c4cccc(C(F)(F)F)c4)ccc3=O)n2)cc1
  A: -5; B: -6%; C: 0.3%; D: 1%
[3] Cc1cccc(-n2c(C)cc(/C=N/NC(=O)c3cccc([N+](=O)[O-])c3C)c2C)c1
  A: -6; B: -8%; C: 0.9%; D: 3%
[4] CS(=O)(=O)N1CCC(C(=O)N2CCN(C(c3ccccc3)c3ccccc3)CC2)CC1
  A: 2; B: -2%; C: 3.6%; D: -2%
[5] O=C(NC(=S)Nc1ccc(S(=O)(=O)Nc2nccs2)cc1)c1ccccc1F
  A: 5; B: -6%; C: 2.4%; D: -12%
[6] Cc1ccccc1NC(=O)c1ccc(CSc2ncccn2)cc1
  A: 0; B: -32%; C: -3.7%; D: 1%
[7] O=C(Nc1ccc(N2CCOCC2)cc1N1CCOCC1)c1ccco1
  A: -8; B: -1%; C: -3.8%; D: -1%
[8] O=C(O)C1CC=C(Cl)CC1C(=O)NCc1ccccc1 (stereo not given)
  A: -3; B: 0%; C: -3.3%; D: -4%
[9] O=C(O)c1cc(Cl)ccc1NC(=O)C1CCCO1 (stereo not given)
  A: -5; B: -3%; C: 2.0%; D: 1%
[10] CCN(C(=S)Nc1ccc(OC(F)F)cc1)C1CCCCC1
  A: -13; B: 5%; C: -3.6%; D: -8%
[11] O=C(Nc1nc2ccc(Cl)cc2s1)c1ccc(Br)o1
  A: -5; B: -51%; C: -0.9%; D: -11%
[12] O=C(N1CCN(c2ccccc2)CC1)C1(S(=O)(=O)c2ccc(Cl)cc2)CC1
  A: .; B: 3%; C: 0.1%; D: 21%
[13] CNc1sc(C(=O)c2ccc(F)cc2)c(N)c1-c1nc2ccccc2s1
  A: -3; B: -44%; C: ?; D: -1%
[14] CC[C@@H](C)[C@@H](C(=O)N1CCN(C(=O)OC(C)(C)C)CC1)n1cc(CCCN=C(NC(=O)OC(C)(C)C)NC(=O)OC(C)(C)C)nn1
  A: -11; B: -1%; C: 2.4%; D: 1%
[15] Cn1c(=O)c2cc(S(=O)(=O)NCCC(=O)NCCC3=CCCCC3)ccc2n(C)c1=O
  A: -20; B: 2%; C: -2.1%; D: 4%
[16] Cc1ccnc(N2CCC(C(=O)Nc3ccc4c(c3)OCCO4)CC2)n1
  A: 1; B: -18%; C: -2.4%; D: -15%
[17] O=C(c1cc(N2C(=O)C3C4CCC(C4)C3C2=O)ccc1Cl)N1CCN(c2ccccc2)CC1 (stereo not given)
  A: 4; B: -3%; C: -2.0%; D: -2%
[18] COc1ccc(C(=O)N2c3ccccc3C(=O)OC2c2ccc3c(c2)OCO3)cc1 (stereo not given)
  A: -7; B: -11%; C: -5.4%; D: -13%
[19] CCN(C(=O)CN1C(=O)c2ccc([N+](=O)[O-])cc2C1=O)C1CCS(=O)(=O)C1 (stereo not given)
  A: .; B: .; C: 0.5%; D: 0%
[20] CC(=O)Nc1ccc(NC(=O)CCC(=O)NCCO)cc1
  A: 2; B: 0%; C: -3.7%; D: 25%
[21] CCC1CN(C(=O)NCc2ccc(C)cc2)c2cc(Cl)ccc2O1 (stereo not given)
  A: .; B: 1%&-10%; C: -0.2%; D: 8%
[22] COc1ccc(CCNC2=C(Cl)C(=O)N(CCc3ccc(OC)c(OC)c3)C2=O)cc1OC
  A: -6; B: 9%; C: ?; D: ?
[23] O=S(=O)(c1ccc2ccccc2c1)N1CCN(S(=O)(=O)N2CCCCC2)CC1
  A: -3; B: -2%; C: -4.4%; D: -1%
[24] CC1(C)Cc2c(c(=S)nc(-c3ccccc3)n2CCN2CCOCC2)CO1
  A: -5; B: 1%; C: -1.1%; D: 11%
[25] COc1cc(C2Nc3ccc4ncccc4c3C3=C2C(=O)CCC3)cc(OC)c1O (stereo not given)
  A: -7; B: 4%; C: -1.5%; D: 3%

# The closing four records of the section before lead into the next:
# Letter code – A = GLA inh pH 4.5; B = miR-21 FLuc; C = Rango complex inh; D = Rango dissoc inh
[22] COc1ccc(CCNC2=C(Cl)C(=O)N(CCc3ccc(OC)c(OC)c3)C2=O)cc1OC
  A: -6; B: 9%; C: ?; D: ?
[23] O=S(=O)(c1ccc2ccccc2c1)N1CCN(S(=O)(=O)N2CCCCC2)CC1
  A: -3; B: -2%; C: -4.4%; D: -1%
[24] CC1(C)Cc2c(c(=S)nc(-c3ccccc3)n2CCN2CCOCC2)CO1
  A: -5; B: 1%; C: -1.1%; D: 11%
[25] COc1cc(C2Nc3ccc4ncccc4c3C3=C2C(=O)CCC3)cc(OC)c1O (stereo not given)
  A: -7; B: 4%; C: -1.5%; D: 3%
[26] COc1ccccc1-n1cnc2cc(NC(=O)c3ccco3)ccc21
  A: -2; B: -9%; C: 0.1%; D: -10%
[27] O=C(NN=C1CCCC1)c1[nH]c2ccc(Cl)cc2c1-c1ccccc1
  A: -10; B: 23%; C: 3.1%; D: 6%
[28] CSc1ccc(/C=C/C(=O)OCC(=O)NC2CC2)cc1
  A: .; B: .; C: 3.0%; D: 13%
[29] CCCCCOC(=O)CSc1nnc(-c2cc(OC)c(OC)c(OC)c2)o1
  A: ?; B: 0%; C: -4.5%; D: 0%
[30] CC(C)(C)NCC(=O)N/N=C/c1ccc(OCc2ccccc2)cc1
  A: 2; B: -39%; C: -1.1%; D: 7%
[31] CC(C)c1nc(CNC(=O)CC2C(=O)NCCN2Cc2cccc(F)c2F)cs1 (stereo not given)
  A: .; B: 0%; C: -2.5%; D: -11%
[32] O=C(NC1CCCCC1)N(Cc1nc2ccccc2c(=O)[nH]1)C1CCCCC1
  A: -6; B: -34%; C: 0.6%; D: 0%
[33] N/C(=N\OC(=O)c1cccc2ccccc12)c1cccc([N+](=O)[O-])c1
  A: -4; B: -2%; C: 0.1%; D: 13%
[34] COc1ccc(C(=O)n2cnc3ccccc32)cc1Br
  A: .; B: .; C: 0.3%; D: -4%
[35] Nc1nc(C2CCOCC2)cs1
  A: 2; B: 0%; C: -6.1%; D: -1%
[36] CCCN(CC(=O)Nc1cc(Cl)ccc1Cl)C(=O)CN1C(=O)C2CCCCC2C1=O (stereo not given)
  A: .; B: 0%; C: -1.0%; D: 1%
[37] O=C(Nc1ccc(S(=O)(=O)N2CCCCCC2)cc1)c1ccc(Br)o1
  A: -8; B: -5%; C: -2.2%; D: 1%
[38] Cc1ccc(N=Nc2ccc(O)c3ncccc23)cc1
  A: -5; B: 4%; C: -6.2%; D: 7%
[39] O=c1[nH]c(SCc2nc3ccccc3c(=O)n2-c2ccccc2)nc2ccccc12
  A: -7; B: -3%; C: -0.3%; D: -8%
[40] O=C(c1ccccc1)c1ccc(OCCCN2CCCCC2)cc1
  A: 7; B: -1%; C: -0.6%; D: -3%
[41] Cc1cccc(NC(=S)N(Cc2cccs2)Cc2cc3cc(C)ccc3[nH]c2=O)c1
  A: -25; B: -6%; C: 0.1%; D: 24%
[42] COc1ccccc1-n1c(C)nnc1SCC(N)=O
  A: -2; B: -7%; C: 2.0%; D: 9%
[43] CC(C)C(OC(=O)Cn1nnc2ccccc21)C(=O)NC1CCCC1 (stereo not given)
  A: .; B: 4%; C: -1.7%; D: 1%
[44] COc1ccc(CNS(=O)(=O)NCc2ccc(OC)c(OC)c2)cc1OC
  A: -9; B: -1%; C: -0.3%; D: -8%
[45] O=C(NCC1CCCO1)C(c1cccs1)N(C(=O)c1ccc(CN2CCOCC2)o1)c1ccc(Cl)cc1 (stereo not given)
  A: -2; B: 0%; C: 0.3%; D: -4%
[46] COc1ccc(NC(=O)c2cccc(Oc3ccccc3)c2)cn1
  A: .; B: -1%; C: 0.3%; D: 9%
[47] COCCNC(=O)C(c1ccc(C)o1)N(C(=O)c1snc(C(N)=O)c1N)c1ccc(C)c(C)c1 (stereo not given)
  A: 0; B: -13%; C: -2.5%; D: 6%
[48] O=c1[nH]cnc2nc(-c3ccccc3)c(-c3ccccc3)nc12
  A: 19; B: 1%; C: -3.2%; D: -24%

# 3 entries from above, ordered by their value in Rango complex inh, low to high.
# Letter code – A = GLA inh pH 4.5; B = miR-21 FLuc; C = Rango complex inh; D = Rango dissoc inh
[11] O=C(Nc1nc2ccc(Cl)cc2s1)c1ccc(Br)o1
  A: -5; B: -51%; C: -0.9%; D: -11%
[14] CC[C@@H](C)[C@@H](C(=O)N1CCN(C(=O)OC(C)(C)C)CC1)n1cc(CCCN=C(NC(=O)OC(C)(C)C)NC(=O)OC(C)(C)C)nn1
  A: -11; B: -1%; C: 2.4%; D: 1%
[28] CSc1ccc(/C=C/C(=O)OCC(=O)NC2CC2)cc1
  A: .; B: .; C: 3.0%; D: 13%
